T. gondii = T. gondii ME49Luc in HeLa cells, luciferase assay, 72 h, no IFN-y (AID 1259421); T. gondii ME49Luc in HeLa, luciferase, 72 h, no IFN-y; hits give low values; reference of the scale and settings of repeat entries not given here; many of its hits are not listed in these tables; activity change, negative = inhibition, %; 6,400 compounds, 9.6% hits;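 active means activity change below -70%; inconclusive means fit judged invalid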;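 further: about 20 µM from a 10 mM stock diluted 500-fold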
* marks the source's active call; other numbers are inactive results; u = inconclusive; & = joins results of further samples; ! = a repeat was not active. Not all compounds are listed; rates above refer to the full screens.

SMILES	T. gondii
Cc1nc(C)c(C)nc1C	20.5
COC(=O)N(C)c1c(N)nc(-c2nn(Cc3ccccc3F)c3ncccc23)nc1N	2.6
COc1cc(-c2ncn(/C=C\C(=O)OC(C)C)n2)cc(C(F)(F)F)c1	-86.8*
O=C(/C=C/c1ccccc1)c1ccc(O)cc1O	65.1
CC(=O)[C@H]1CCC2C3CCC4=CC(=O)CC[C@]4(C)C3[C@H](OC(=O)CCC(=O)O)C[C@@]21C (stereo partly specified)	-2.6
CC[C@H](NC(=O)c1c(C)c(-c2ccccc2)nc2ccccc12)c1ccccc1	8.7&7.5
COc1cc(N)c(Cl)cc1C(=O)NC1CCN(Cc2ccccc2)CC1	6.5
COC(=O)[C@@]1(C)CCC[C@]2(C)c3ccc(O)c(C(C)C)c3CCC12 (stereo partly specified)	-72.7*
OC[C@@]1(O)OC[C@@H](O)[C@@H](O)[C@@H]1O	7.1
CN1C(C(=O)Nc2ccccn2)C(=O)c2sc(Cl)cc2S1(=O)=O (stereo unspecified)	6.4
C[C@H](Oc1ccc(S(C)(=O)=O)cc1C(=O)N1CCN(c2ncc(C(F)(F)F)cc2F)CC1)C(F)(F)F	-27.8
CC(C)(C)c1cc(/C=C(\C#N)C(N)=S)cc(C(C)(C)C)c1O	-86.0*
O=C(O)COc1ccc(OCCNC[C@H](O)COc2ccccc2)cc1	-1.0
Cc1c(C(=O)NN2CCCCC2)nn(-c2ccc(Cl)cc2Cl)c1-c1ccc(Cl)cc1	-12.7
COCc1nc2c([nH]1)c(=O)n(C)c(=O)n2CC(C)C	1.0&19.8
COC(=O)N[C@H](C(=O)N[C@@H](Cc1ccccc1)[C@@H](O)CN(Cc1ccc(-c2ccccn2)cc1)NC(=O)[C@@H](NC(=O)OC)C(C)(C)C)C(C)(C)C	2.5
C[C@]12CCC3=C4CCC(=O)C=C4CC[C@H]3[C@@H]1CC[C@@]2(O)CC#N	20.7
CCC(=O)O[C@]1(C(=O)CO)CC[C@H]2[C@@H]3CCC4=CC(=O)CC[C@]4(C)[C@H]3CC[C@@]21C	-9.2
CS(=O)(=O)c1ccc(-c2nc(-c3ccc(F)cc3)c(-c3ccncc3)[nH]2)cc1	-5.7
Cc1ccc(C(C)C)cc2c(C)ccc1-2	5.1
COc1ccc([C@@H]2CC(=O)c3c(O)cc(O[C@@H]4O[C@H](CO[C@H]5O[C@@H](C)[C@H](O)[C@@H](O)[C@H]5O)[C@@H](O)[C@H](O)[C@H]4O)cc3O2)cc1O	5.1
Cc1cccc(C)c1NC(=O)C[N+](C)(C)C	2.4&2.9
O=[N+]([O-])c1ccccc1S(=O)(=O)NCC1CCC(CNCC2CCc3ccccc3C2)CC1 (stereo unspecified)	-12.7&3.0
NS(=O)(=O)c1ccc(N=Cc2c(O)[nH]c3ccccc23)cc1	13.4
CCSC(=N)N	1.9&14.7
COC(=O)C(CCCN=C(N)N)NC(=O)CCCc1c(-c2ccccc2)[nH]c2c(F)cc(F)cc12 (stereo unspecified)	11.7
COc1cc2c(=O)c(-c3ccc(O)cc3)coc2cc1O	-7.1
NS(=O)(=O)c1cc(C2(O)NC(=O)c3ccccc32)ccc1Cl (stereo unspecified)	1.6&7.2
Cn1c(COc2ccc(CC3SC(=O)NC3=O)cc2)nc2ccccc2c1=O (stereo unspecified)	-40.6
C[C@]12CCC3c4ccc(OS(=O)(=O)O)cc4CCC3C1CCC2=O (stereo partly specified)	14.4&11.9
N=C(N)c1ccc(N=NNc2ccc(C(=N)N)cc2)cc1	5.3
COc1cc(OC)c(NC(=O)Nc2cc(C)on2)cc1Cl	26.1&4.1
CCS(=O)(=O)N(C)C1c2cc(C#N)ccc2OC(C)(C)C1O (stereo unspecified)	-6.1
C=CC(=O)N1CCCCC1	4.1
CCOC(=O)N1c2ccc(C(F)(F)F)cc2[C@@H](N(Cc2cc(C(F)(F)F)cc(C(F)(F)F)c2)C(=O)OC)C[C@H]1CC	27.1
Nc1nccc2c1ncn2[C@@H]1C=C(CO)[C@@H](O)[C@H]1O	-74.6*!
COc1ccc(Cl)cc1C(=O)NCCc1ccc(S(=O)(=O)NC(=O)NC2CCCCC2)cc1	-6.0&9.7
CC(C)[C@H]1c2ccc(F)cc2CC[C@@]1(CCN(C)CCCc1nc2ccccc2[nH]1)OC(=O)C1CC1	-73.8*
Nc1ncnc2c1ncn2[C@H]1CC[C@@H](CO)O1	1.1
NC1=N[C@H]2[C@H](CS[C@H]2CCCCC(=O)O)N1	20.2
COc1cc(Br)c(Nc2nc(-c3c(C)nc4ncccn34)cs2)c(Br)c1	13.9
CNc1cc(NS(=O)(=O)c2ccc(N)cc2)nc(NC)n1	4.9
COc1ccc(NC(=O)c2ccc(-c3ccc(-c4noc(C)n4)cc3C)cc2)cc1OCCN(C)C	-87.8*!
O=C(Oc1ccccc1C(=O)O)c1ccccc1O	10.1
N[C@@H](C(=O)O)[C@@H](OCc1ccccc1)C(=O)O (racemic)	8.7
O=C(OCCN1CCCCC1)c1c[nH]c2ccccc12	-2.4&16.1
OCC(S)CS (stereo unspecified)	13.8
COC(=O)C1C(O)CCC2CN3CCc4c([nH]c5ccccc45)C3CC21 (stereo unspecified)	6.8
C[C@@H](O)CNC(C)(C)CC(=O)N[C@@H]1CCc2ccccc2N(Cc2ccc(-c3ccccc3-c3nn[nH]n3)cc2)C1=O	8.1
Nc1ccccc1NC(=O)c1ccc(CNC(=O)OCc2cccnc2)cc1	6.7&-0.7
COc1nc(N)nc2c1ncn2[C@@H]1O[C@H](CO)[C@@H](O)[C@@H]1O	14.5&-2.6
COC(=O)C(Cc1ccc(OCCn2c(=O)sc3cc(C(=O)c4ccccc4)ccc32)cc1)C(=O)OC	18.5
C=CC(=O)Nc1ccccc1	-0.4
CN(C)CCc1c[nH]c2ccc(Cn3cncn3)cc12	-6.3&-7.8
COc1cc(OC)c(C(=O)CCCCN2CCC3(CC2)NC(=O)NC3=O)cc1NS(=O)(=O)c1ccc(C(F)(F)F)cc1	-6.6&-1.9
CCc1ccc(/C=C2/SC(=S)NC2=O)cc1	51.4
COc1ccc(Cl)cc1C(=O)NCCc1ccc(C(=O)O)cc1	10.3
COc1ccc2[nH]c(C(=O)c3ccccc3)cc2c1	-39.0
O=C1CC2(CCCC2)CC(=O)N1CCNCC1COc2ccccc2O1 (stereo unspecified)	5.8&17.5
CCC(CC)[C@H](NC(C)=O)[C@@H]1[C@H](O)[C@@H](C(=O)O)C[C@H]1N=C(N)N	23.3

Further entries:
SMILES	T. gondii
CC1=C(/C=C/C(=C/C=C/C(C)=C/C(=O)O)c2ccc(C)cc2)C(C)(C)CCC1	20.2
COc1cc2c(cc1OC)C1Cc3ccc(OC)c(OC)c3CN1CC2 (stereo unspecified)	8.5
CN=C(NC)NCc1ccc(OC)cc1	1.0
O=c1c(-c2ccc(O)cc2)coc2c([C@@H]3O[C@H](CO)[C@@H](O)[C@H](O)[C@H]3O)c(O)ccc12	-0.6
CC(NC(=O)Cc1cc(F)cc(F)c1)C(=O)NC(C(=O)OC(C)(C)C)c1ccccc1 (stereo unspecified)	5.0
CCC[C@@H](NC(=O)N1C(=O)C(CC)(CC)[C@@H]1Oc1ccc(C(=O)N2CCN(C)CC2)cc1)c1ccc2c(c1)OCO2	4.4
CC(C)(C)c1ccc(-c2nc3ccccc3[nH]2)cc1	-87.4*
N#Cc1cc(NC(=O)C(=O)O)c(Cl)c(NC(=O)C(=O)O)c1	10.9
COc1cc(O)c(C(C)=O)c(OC)c1	-3.5
C=CC(=O)Nc1cc(Nc2nccc(-c3cn(C)c4ccccc34)n2)c(OC)cc1N(C)CCN(C)C	-63.1
O=C(O)C1CCCN(CCC=C(c2ccccc2)c2ccccc2)C1 (stereo unspecified)	1.9&7.5
Cc1csc(-c2nnc(Nc3ccc(Oc4ncccc4-c4ccnc(N)n4)cc3)c3ccccc23)c1	-85.1*
C=CC[N+]1([C@H]2C[C@H]3[C@@H]4CC[C@H]5C[C@H](O)[C@@H](N6CCOCC6)C[C@]5(C)[C@H]4CC[C@]3(C)[C@H]2OC(C)=O)CCCC1	0.8
CC[C@H]1OC(=O)[C@H](C)[C@@H](O[C@H]2C[C@@](C)(OC)[C@@H](O)[C@H](C)O2)[C@H](C)[C@@H](O[C@@H]2O[C@H](C)C[C@H](N(C)C)[C@H]2O)[C@](C)(O)C[C@@H](C)CN(C)[C@H](C)[C@@H](O)[C@]1(C)O	-2.4
COc1ccc(CCN2CCC(Nc3nc4ccccc4n3Cc3ccc(F)cc3)CC2)cc1	39.0&35.3
CC1(C)O[C@@H]2C[C@H]3[C@@H]4CCC5=CC(=O)C=C[C@]5(C)[C@H]4[C@@H](O)C[C@]3(C)[C@]2(C(=O)CO)O1	-2.5&-35.6
Cc1cccc(Oc2cnc(=O)[nH]c2)c1	9.2
O=C(C(c1ccccc1)c1ccccc1)N1CCN(CC(O)COc2cccc3ncccc23)CC1 (stereo unspecified)	10.1
CCCCCN(CCCOC)C(=O)[C@@H](CCC(=O)O)NC(=O)c1ccc(Cl)c(Cl)c1	5.1
Cn1nnc(-c2ccc(-c3ccc(N4C[C@H](CO)OC4=O)cc3F)cn2)n1	60.5
Cc1cc(C)c(Nc2ccnc(Nc3ccc(C#N)cc3)n2)c(C)c1	-44.9
NCCCCNS(=O)(=O)c1ccc2c(Cl)cccc2c1	2.1
CN(C)CCC=C1c2ccccc2C=Cc2ccccc21	21.5&43.2
Cc1cccc(C)c1NC(=O)CC12CCCN1CCC2	13.3
COc1cc(OC)c(C(C)=O)c(O)c1C	2.8
O=C(O)CCCc1ccccc1	7.3&18.5
N=C(N)c1ccc(N2CCN(C3CCN(CC(=O)O)CC3)CC2)cc1	0.6&1.5
Oc1ccc([C@H]2Oc3cc(O)cc(O)c3C[C@H]2O)cc1	0.9
C=C(NC(=O)C(=C)NC(=O)c1csc(C2=N[C@@H]3c4csc(n4)[C@H]4NC(=O)c5csc(n5)[C@H]([C@](C)(O)[C@@H](C)O)NC(=O)[C@H]5CSC(=N5)/C(=C/C)NC(=O)[C@H]([C@@H](C)O)NC(=O)c5csc(n5)[C@]3(CC2)NC(=O)[C@H](C)NC(=O)C(=C)NC(=O)[C@H](C)NC(=O)[C@H]([C@@H](C)CC)N[C@@H]2C=Cc3c([C@H](C)O)cc(nc3[C@H]2O)C(=O)O[C@@H]4C)n1)C(N)=O	u
CNC(=O)c1ccc(N2C(=S)N(c3cnc(C#N)c(C(F)(F)F)c3)C(=O)C23CCC3)cc1F	13.6
O=C(Cc1ccccc1)NO	-1.4
C#CC1(OCC(O)CN2CCN(c3ccccc3OC)CC2)CCCCC1 (stereo unspecified)	9.7
COCC1=C(C(=O)OC(C)OC(=O)OC(C)C)N2C(=O)[C@@H](NC(=O)/C(=N/OC)c3csc(N)n3)[C@H]2SC1 (stereo partly specified)	-2.5
CCS(=O)(=O)c1cccc(-c2cc(C(=O)NC3CCN(C)CC3)c(C)c3[nH]c4ncc(C)cc4c23)c1	-53.7
O=Nc1c(-c2c(O)[nH]c3cc(Br)ccc23)[nH]c2ccccc12	-87.9*
Cc1cc(/C(=C\Nc2ccc(Cl)cc2)C(=O)Nc2ccc(Cl)cc2)on1	18.7
C[C@@H](CN1CC(=O)NC(=O)C1)N1CC(=O)NC(=O)C1	6.3
CCN(Cc1ccncc1)C(=O)C(CO)c1ccccc1 (stereo unspecified)	2.1&7.5
CN1CCN(c2cccc(Nc3nc4c(-c5ccc(S(C)(=O)=O)cc5)cccn4n3)c2)CC1	0.0
COc1nc2ccc(Br)cc2cc1[C@@H](c1ccccc1)[C@@](O)(CCN(C)C)c1cccc2ccccc12	48.0

Filtered by structure: the entries above with a thiophene ring, fused or not.
SMILES	T. gondii
CN1C(C(=O)Nc2ccccn2)C(=O)c2sc(Cl)cc2S1(=O)=O (stereo unspecified)	6.4
Cc1csc(-c2nnc(Nc3ccc(Oc4ncccc4-c4ccnc(N)n4)cc3)c3ccccc23)c1	-85.1*

Next section.
SMILES	T. gondii
COC(=O)[C@@]12OC[C@]34[C@H]([C@@H](O)[C@@H]1O)[C@@]1(C)CC(=O)C(=O)C(C)[C@@H]1C[C@H]3OC(=O)[C@H](OC(=O)/C=C(\C)C(C)C)[C@@H]24 (stereo partly specified)	-83.7*
O=C(NC1CCCCC1)NC1CCCCC1	10.9
Ic1cc(-c2ccccc2)ncn1	1.7
CCN1CCN(c2cc(-c3ccc(F)cc3)c3c(n2)CCCCCC3)CC1	11.7
COc1ccc(Nc2ncnc3ccc(OC)cc23)cc1	3.5&3.7
CN1CC(C(=O)NC2(C)OC3(O)C4CCCN4C(=O)C(Cc4ccccc4)N3C2=O)CC2c3cccc4[nH]cc(c34)CC21 (stereo unspecified)	-10.4
CCOC(=O)n1ccn(C)c1=S	1.7&4.4
O=c1[nH]cnc2nc[nH]c12	7.1
O=C(N/N=C/c1ccccc1O)c1ccccc1O	-86.5*
CCCCC[C@@H](O)[C@H]1C(=O)O[C@H](C)[C@@H](O)/C=C/C=C/C=C/C=C/C=C(\C)[C@@H](O)C[C@H](O)C[C@H](O)C[C@H](O)C[C@H](O)C[C@H](O)C[C@@H]1O	2.5
O=C1c2ccccc2S(=O)(=O)N1CCCCN1CCN(c2ncccn2)CC1	13.5&10.3
N#C/C(=C1/SC[C@@H](c2ccc(Cl)cc2Cl)S1)n1ccnc1	20.2
c1ccc(CNc2ncnc3nc[nH]c23)cc1	7.4&9.7
CCn1c(=O)[nH]c2ccccc21	2.5&10.3

Six entries already listed, arranged by number of heavy atoms, descending.
SMILES	T. gondii
CN1CC(C(=O)NC2(C)OC3(O)C4CCCN4C(=O)C(Cc4ccccc4)N3C2=O)CC2c3cccc4[nH]cc(c34)CC21 (stereo unspecified)	-10.4
COC(=O)[C@@]12OC[C@]34[C@H]([C@@H](O)[C@@H]1O)[C@@]1(C)CC(=O)C(=O)C(C)[C@@H]1C[C@H]3OC(=O)[C@H](OC(=O)/C=C(\C)C(C)C)[C@@H]24 (stereo partly specified)	-83.7*
O=C1c2ccccc2S(=O)(=O)N1CCCCN1CCN(c2ncccn2)CC1	13.5&10.3
N#C/C(=C1/SC[C@@H](c2ccc(Cl)cc2Cl)S1)n1ccnc1	20.2
c1ccc(CNc2ncnc3nc[nH]c23)cc1	7.4&9.7
Ic1cc(-c2ccccc2)ncn1	1.7
